From PubChem
VACV mCherry inh: qHTS for Stage-Specific Inhibitors of Vaccinia Orthopoxvirus: mCherry Reporter Primary qHTS | Vaccinia virus mCherry reporter infection, fluorescence; about a quarter of the inactives have no number | hit rate 0.63% among 310,000 | Potency, µM (doses to about 36.5 µM), inactives show top-dose activity change, negative = inhibition, hits mostly inhibitors; active = well fitted inhibition curve with a large enough effect; inconclusive = small, poorly fitted or top-dose-only effect; inactive = no such curve, though single readings can be large or run the other way; tested in A549 cells; also: nearly all actives have a fitted effect of over 35% in size; inactives centre near -10
Vaccinia Venus: qHTS for Stage-Specific Inhibitors of Vaccinia Orthopoxvirus: Venus Reporter Primary qHTS; Vaccinia virus Venus reporter expression, fluorescence; hit rate 0.46% among 330,000; AID 720580, 2013; Potency, µM (titrated, usually from 36.5 µM), inactives show at the highest dose activity change, negative = inhibition, usual class: inhibitors; active means well fitted inhibition curve with a large enough effect; inconclusive means small, poorly fitted or top-dose-only effect; inactive means no such curve, though single readings can be large or run the other way; tested in A549 cells; also: nearly all actives have a fitted effect of over 30% in size; inactives centre near -10
Starred values were filed as active, the others as inactive; i = inactive; ? = inconclusive; · = not tested or not shown; & = joins results of further samples; [ ] = dose if it differs, or a comment. % is scaled to controls: 0 for no effect and ±100 for the full control effect; potency is read from the fitted curve at half-maximal effect.

canonical_smiles	VACV mCherry inh	Vaccinia Venus
COc1cc(C(=O)NC(=S)N(CCC#N)Cc2cccnc2)cc(OC)c1OC	-18%	-14%
COc1ccc(C2C(C#N)=C(N)N(c3cccnc3)C3=C2C(=O)CCC3)cc1Cn1cc([N+](=O)[O-])cn1 (stereo not given)	-9%	-2%
O=C(CCc1nc2ccccc2c(=O)[nH]1)Nc1ccc(N2CCCCC2)cc1	0%	1%
COC(=O)c1cc(NC(=O)c2c(Cl)cnn2C)cc(C(=O)OC)c1	i	-14%
COc1cccc(NC(=S)NC2CC(C)(C)NC(C)(C)C2)c1	i	-12%
COc1cccc(CNC(=O)C2CCN(S(=O)(=O)c3ccc4c(c3)OCCO4)CC2)c1	-16%	-15%
Cc1ccc(N2C(=O)CC(=O)NC2=O)cc1	-9%	7%
O=C(NCC(c1ccc2c(c1)OCO2)N1CCOCC1)c1ccc(F)cc1 (stereo not given)	i	-3%
Cc1ccc(CSCC(=O)Nc2ccc(F)cc2)cc1	-22%	-8%
CCCN(C(=O)c1ccc2c(SCC(=O)O)c3c(nc2c1)CCC3)c1cccc(C)c1	-6%[7.34 µM]	4%[7.34 µM]
O=C1Nc2ccccc2/C1=N\N1CCOCC1	-9%	-9%
O=C1NC(=O)C(=Cc2ccco2)C(=O)N1	-7%	15%
CCn1c(SCc2ccccc2Cl)nc2nc3c(cc2c1=O)CCCC3	-18%	?
CC1(C(=O)NS(=O)(=O)c2cccs2)CCN1C(=O)CC1CC1 (stereo not given)	10%	-3%
COc1ccc(Nc2nc(C)cc(C)c2C#N)cc1	-13%	-13%
O=C(NCC1CCCO1)c1cccnc1NCc1ccc(F)cc1 (stereo not given)	i	-5%
COC(=O)c1c(C)cc(O)cc1O	-16%	-8%&0%
CN(C)c1nnnn1-c1ccc(Cl)cc1Cl	i	4%
CCCC(=O)OCCNC(=O)c1cc2ccccc2oc1=O	·	-26%
CC(C)C1C(=O)N(Cc2cn(CCC3OCCCO3)nn2)CCS(=O)(=O)N1Cc1ccc(-c2cccc(N(C)C)c2)cc1 (stereo not given)	-15%	-14%
CC(Sc1nc2sccc2c(=O)n1-c1ccccc1)C(N)=O (stereo not given)	?	-4%
CCN1C(=O)[C@H]2[C@H]3CN=C(SCc4ccc(C#N)cc4)N3[C@@](Cc3ccccc3)(C(=O)OC)[C@H]2C1=O	-8%	-7%
COC12CCC3(CC1C(C)(O)C(C)(C)C)[C@H]1Cc4ccc(O)c5c4[C@@]3(CCN1CC1CC1)C2O5 (stereo not given in full)	-11%	-21%
CC(C)N=C(NC#N)SCc1ccc(Br)cc1	-1%	-18%
Cc1ccccc1C(=O)NCCCCc1ccccc1	-5%	-8%
COc1cccc(C2(CSc3nnc(-c4cc(OC)c(OC)c(OC)c4)o3)OCCO2)c1	·	-16%
COc1ccc(CCC(=O)Nc2ccc(Cl)c(S(=O)(=O)N3CCOCC3)c2)cc1OC	?	-25%
COc1ccc(CNC(=O)c2sc3nc4n(c(=O)c3c2C)CCC4)cc1	-6%	-10%
COc1ccccc1-c1nc(-c2ccc(Br)o2)no1	-11%[7.34 µM]	-8%[7.34 µM]
Cn1c(C(=O)N2CCCC(C(=O)NCCc3ccccc3)C2)cc2sccc21 (stereo not given)	-2%	-16%
CCCCS(=O)c1c(O)c2ccccc2[nH]c1=O (stereo not given)	-7%	-5%
CCOc1ccc(-c2cc(C(=O)N3CCN(c4ccc(C)cc4)C(C)C3)c3ccccc3n2)cc1 (stereo not given)	i	-15%
Cc1nnc(SC(C)C)n(N)c1=O	0%	-3%
O=C(/C=C/c1ccco1)Nc1cccnc1	-5%	-11%
Cc1c(Br)ccc(NC(=O)Cn2nc(-c3cccs3)ccc2=O)c1C	-1%	0%
Cc1cc(C)c(NC(=O)c2sc3nc(C)cc(C)c3c2NC(=O)c2ccccc2)c(C)c1	0%	-24%

Reprinted from the part before: 4 entries; new compounds follow.
canonical_smiles	VACV mCherry inh	Vaccinia Venus
Cc1nnc(SC(C)C)n(N)c1=O	0%	-3%
O=C(/C=C/c1ccco1)Nc1cccnc1	-5%	-11%
Cc1c(Br)ccc(NC(=O)Cn2nc(-c3cccs3)ccc2=O)c1C	-1%	0%
Cc1cc(C)c(NC(=O)c2sc3nc(C)cc(C)c3c2NC(=O)c2ccccc2)c(C)c1	0%	-24%
Cc1nn(C(C)C(=O)NNC(=S)Nc2ccc(F)cc2)c(C)c1[N+](=O)[O-] (stereo not given)	-7%	-3%
Cc1ccc2nc(NC(=O)CN3CCOCC3)sc2c1	-13%	-20%
O=C(NC1CCCCC1)c1ccc(CSc2nc3ccncc3n2Cc2cccc(F)c2)cc1	-16%	-15%
CCn1c(C)nc2cc(C(=O)N/N=C/c3ccc(N4CCOCC4)cc3)ccc21	-8%	5%
CCOC(=O)N1CCc2c(sc(NCc3ccc(OC)c(OC)c3OC)c2C(=O)Nc2ccc(OC)cc2OC)C1	-15%	-3%
Cc1c(NC(=O)N2CCCCCC2)c(=O)n(-c2ccccc2)n1C	-1%	-8%
O=C1c2ccccc2C(c2nnnn2-c2ccc3c(c2)OCCO3)N1Cc1ccccc1 (stereo not given)	-12%	-6%
Cc1cc2ccccn2c1C(=O)c1ccc(F)cc1	-2%	-19%
O=C(Cc1cccc(NC(=O)C2CCCN(C(=O)C3CCC3)C2)c1)Nc1cccc(C(=O)N2CCOCC2)c1 (stereo not given)	i	6%
Cn1cc(Br)c(C(=O)Nc2nccs2)n1	-9%	-5%
Cc1ccc(SCc2cc(=O)[nH]c(N3CCN(Cc4ccc5c(c4)OCO5)CC3)n2)cc1	·	-8%
CCOC(=O)CSc1nc2ccc(NC(=O)COc3ccccc3)cc2s1	-9%	2%
COc1ccc(CNC(=O)C2CCN(S(=O)(=O)c3cccc(C(F)(F)F)c3)CC2)cc1	-28%	-23%
Cn1c(=O)c2cc(NC(=S)NCc3ccccc3F)ccc2n1Cc1ccccc1	-5%	-9%
CC(=O)c1ccc(-n2nnnc2SCC(=O)NNC(=O)c2ccco2)cc1	-1%	-2%
CC(O)[C@H]1CC[C@H]2[C@@H]3CC[C@H]4C[C@@H](O)CC[C@]4(C)[C@H]3/C(=N/O)C[C@]12C (stereo not given in full)	-11%	-16%
CC(=O)NC(Cc1c[nH]c2ccccc12)C(=O)OCC(=O)Nc1ccc2c(c1)OCO2 (stereo not given)	·	-7%
CCn1c(SCC(=O)c2ccccc2)nnc1-c1cc2cc(Br)ccc2o1	·	-15%
Cc1cc(C)cc(OCC(=O)Nc2c(C(=O)c3ccccc3)oc3ccccc23)c1	-5%	-2%
COc1ccc(N(C(C)C(=O)N2CCC(Cc3ccccc3)CC2)S(C)(=O)=O)cc1 (stereo not given)	-27%	-24%
CCOc1ccc(NS(=O)(=O)c2ccc(SC)cc2)cc1	-11%	?
Fc1ccccc1C1CCN(Cc2nc(CC3CC3)no2)C1 (stereo not given)	-5%	-22%
CCc1ccc(O)c(N=Cc2ccccc2O)c1	-26%	-20%
O=C(c1ccccc1)c1nn(-c2cccc(Cl)c2)c2nc(-c3ccccc3)cc(=O)n12	-22%	-8%

Profiles from above. Order of values: VACV mCherry inh, Vaccinia Venus
Fc1ccccc1C1CCN(Cc2nc(CC3CC3)no2)C1 (stereo not given) across the screens: -5%, -22%
O=C(c1ccccc1)c1nn(-c2cccc(Cl)c2)c2nc(-c3ccccc3)cc(=O)n12 across the screens: -22%, -8%
CC(=O)c1ccc(-n2nnnc2SCC(=O)NNC(=O)c2ccco2)cc1 across the screens: -1%, -2%
COc1ccc(CNC(=O)C2CCN(S(=O)(=O)c3cccc(C(F)(F)F)c3)CC2)cc1 across the screens: -28%, -23%

Next section:
canonical_smiles	VACV mCherry inh	Vaccinia Venus
CN(Cc1ccccc1F)C(=O)CN1c2cccc3cccc(c23)S1(=O)=O	-14%	-5%
COCCN(Cc1ccccc1)P(=O)(O)c1ccccc1OCC(=O)O	·	-16%
Cc1cccc(N(C2C=CS(=O)(=O)C2)S(=O)(=O)c2ccccc2)c1 (stereo not given)	-5%	-4%
CN1CCN(C(=O)C2C3C=CC(C3)C2C(=O)O)CC1 (stereo not given)	·	-4%
Cc1nc(N2CCOCC2)c2oc3ccccc3c2n1	6%	-13%
O=C(NCCCc1nc2ccccc2[nH]1)c1cccs1	-9%	-2%
COc1ccc2nc(/N=C/c3c(O)n(-c4cccc(Cl)c4)c(=O)[nH]c3=O)sc2c1	-16%	-12%
Cc1ccc(NC(=O)c2ccc(Cl)cc2[N+](=O)[O-])nc1	i	?
COc1ccccc1CCNc1ncnc2c1nnn2C	-15%	-12%
CSc1ccccc1OCc1cc(C(=O)N2CCN3CCCC3C2)no1 (stereo not given)	-2%[7.34 µM]	15%[7.34 µM]
CN(C)S(=O)(=O)c1cc([N+](=O)[O-])ccc1N1CCCCCC1	-8%	-25%
O=[N+]([O-])c1ccccc1N=NNc1ccccc1	-13%	-3%
CNc1nc(Cl)c(SC)c(NC2CCCCC2)n1	i	-11%
Cc1c(NC(=O)CCCOc2ccccc2)cccc1[N+](=O)[O-]	-21%	-15%
CC(C)(C)c1ccc(C(=O)NC(=S)Nc2sc3c(c2C#N)CCC3)cc1	-23%	-13%
COc1ccc(NS(=O)(=O)c2ccc(NC(=S)NC(=O)/C=C/c3ccc(C)cc3)cc2)nn1	-24%	-12%
CC(=O)Nc1sc2c(c1C(N)=O)CCN(Cc1ccccc1)C2	-27%	-19%
COCC(=O)Nc1nnc(C2CCCCC2)s1	-8%	-3%
COc1ccc(N(C(=O)CNC(=O)c2cccs2)C(C(=O)NCC2CCCO2)c2ccccc2)c(OC)c1 (stereo not given)	-10%	-7%
N/C(=N\NS(=O)(=O)c1cc(C(F)(F)F)cc(C(F)(F)F)c1)c1ccccn1	-15%[7.34 µM]	-2%[7.34 µM]
CCO[C@H]1OC(C(N)=O)=C[C@@H](c2csc3ccccc23)[C@@H]1CCCO	i	-21%
Cn1cnnc1SCC(=O)NNC(=O)c1ccc(Cl)cc1	-13%	-3%
CCCSc1nc2sc3c(c2c(=O)[nH]1)CCN(Cc1ccccc1)C3	i	-7%
C=CCN1c2ccccc2[C@]23C[C@@H](C(=O)OC)N(C(=O)OCC)C2=NC(C(=O)OC)=C(C(=O)OC)[C@H]13	-9%	-29%
CC12CN3CC(C)(CN(C1)C3c1ccc3ccccc3c1O)C2=O (stereo not given)	-13%	-9%
O=C(CSC1c2ccccc2-c2ccccc21)N/N=C/c1ccccc1C(=O)O	5%	4%
COc1ccc(/C=N/NC(=O)C(=O)NCC2CCCO2)cc1 (stereo not given)	-14%	-24%
COc1ccc(NC2CCCN(C(=O)c3ccc(C)c(N4CCNC4=O)c3)C2)cc1 (stereo not given)	i	-8%
Oc1ccc(NCc2cccs2)cc1	i	-2%
CCCCNC(=O)CSc1nc(O)c(Cc2ccc(OC)cc2)c(=O)[nH]1	-23%	-7%
COc1cc(=O)n2c(c1C(=O)NCc1ccco1)CCN(Cc1cccc(C(F)(F)F)c1)CC2	-8%	-3%
Cc1cc(NC(=O)c2cccc(S(=O)(=O)N3CCC(C)CC3)c2)no1	-1%	-17%
CN(Cc1ccco1)C(=O)c1c[nH]c2ccc(S(=O)(=O)Nc3ccc4c(c3)OCCO4)cc2c1=O	i	-14%
NC(=O)COC(=O)CCCSc1nc2ccccc2s1	-1%	-5%
CCOC(=O)Cc1csc(NC(=O)Cn2c(=O)oc3ccccc32)n1	-12%	-15%
COc1ccc(CN2CCC[C@]3(N[C@H](c4ccccc4)[C@@H]4C(=O)N(C)C(=O)[C@@H]43)C2=O)cc1	i	-9%
CCNc1nc(Oc2ccc(=O)n(-c3ccccc3)n2)nc(N2CCOCC2)n1	·	-13%
CN1CCc2nc(SCC(=O)Nc3ccc(Cl)cc3)c(C#N)cc2C1	·	-24%
O=c1[nH]c(N2CCN(Cc3ccc4c(c3)OCO4)CC2)nc2c1CCCC2	1%	-2%
O=c1ccc(-c2ccccc2)nn1Cc1c(F)cccc1Cl	-12%	-6%
O=C(NC(Cc1c[nH]c2ccccc12)C(=O)Nc1ccc(OC(F)(F)F)cc1)c1cccs1 (stereo not given)	?	-26%
Nc1cccc(N2C(=O)c3cccc4c(N)ccc(c34)C2=O)c1	i	48%[activator]
COc1ccc(CCNC(=O)c2ccc(Cl)nc2)cc1	-5%	-7%
COc1ccc(OC)c(C2=C[N+](=O)C(C)(C)C(C)(C)N2[O-])c1	-11%	-12%
O=c1[nH]c2ccc(N/C(=N/S(=O)(=O)c3ccccc3)c3ccccc3)cc2[nH]1	-25%	-7%
CCOc1nc(Nc2ccc(F)cc2)nc(N2CCN(c3ccc(OC)cc3)CC2)n1	·	-20%

Ordered by molecular weight (lowest first): part of the list above
canonical_smiles	VACV mCherry inh	Vaccinia Venus
COc1ccc(CCNC(=O)c2ccc(Cl)nc2)cc1	-5%	-7%
COc1ccc(OC)c(C2=C[N+](=O)C(C)(C)C(C)(C)N2[O-])c1	-11%	-12%
O=C(NC(Cc1c[nH]c2ccccc12)C(=O)Nc1ccc(OC(F)(F)F)cc1)c1cccs1 (stereo not given)	?	-26%
